STK33 inh: human STK33 kinase inhibition | 320,000 compounds, 0.073% hits | Q9BYT3 | AID 2661 | inhibition, % at 10 µM | purified STK33, MBP phosphorylation, ADP-Glo luminescence;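 active = inhibition at or above 25%, using the most active replicate where run in duplicate; inactive = inhibition below 25%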
Target sequence (Q9BYT3 whole entry, looked up): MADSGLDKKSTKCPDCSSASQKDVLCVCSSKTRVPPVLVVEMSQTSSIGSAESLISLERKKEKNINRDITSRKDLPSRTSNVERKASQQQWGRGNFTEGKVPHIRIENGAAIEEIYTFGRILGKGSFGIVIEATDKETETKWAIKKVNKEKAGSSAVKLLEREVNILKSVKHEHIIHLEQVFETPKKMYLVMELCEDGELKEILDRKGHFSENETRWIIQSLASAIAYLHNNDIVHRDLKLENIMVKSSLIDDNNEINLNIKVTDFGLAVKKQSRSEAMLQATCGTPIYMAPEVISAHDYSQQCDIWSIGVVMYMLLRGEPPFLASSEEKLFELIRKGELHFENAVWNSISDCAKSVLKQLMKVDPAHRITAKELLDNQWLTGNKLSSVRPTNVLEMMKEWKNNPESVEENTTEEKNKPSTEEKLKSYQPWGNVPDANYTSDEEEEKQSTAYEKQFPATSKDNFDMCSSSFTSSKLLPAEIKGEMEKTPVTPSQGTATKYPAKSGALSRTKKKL
The depositor's hits bear a star. Only part of the results is shown; most or all hits stand in other tables.

Preview (three entries):
STK33 inh	SMILES
-0.8	CC(C)(C)C(=O)N1CCN(c2ccc([N+](=O)[O-])c(NCC3CCCO3)c2)CC1 (configuration not stated)
0.0	CCOCc1cnc(C)nc1NCC(=O)c1c(C)[nH]c2ccc(OC)cc12
-0.6	CC1=NN(C(N)=S)C(=O)C1N=Nc1c(Br)cc(Br)cc1Br (configuration not stated)

Results (from the top)
STK33 inh	SMILES
-0.8	CC(C)(C)C(=O)N1CCN(c2ccc([N+](=O)[O-])c(NCC3CCCO3)c2)CC1 (configuration not stated)
0.0	CCOCc1cnc(C)nc1NCC(=O)c1c(C)[nH]c2ccc(OC)cc12
-0.6	CC1=NN(C(N)=S)C(=O)C1N=Nc1c(Br)cc(Br)cc1Br (configuration not stated)
8.4	CCOC(=O)C(NCc1ccccc1OC)(NC(C)=O)C(F)(F)F (configuration not stated)
-1.3	COc1ccc(S(=O)(=O)NCC2CCCN(C(=O)c3cccnc3C)C2)cc1 (configuration not stated)
-1.1	Cc1ccc(S(=O)(=O)N2CC(C)C(=O)CC2C)cc1 (configuration not stated)
-0.3	CCOc1cccc(CN2CCCC(CNC(=O)c3cccc(OC)c3OC)C2)c1 (configuration not stated)
-11	O=C(Nc1cccc(-c2cn3ccccc3n2)c1)c1cccc(Cl)c1
-0.5	COc1cccc(N2C(=NC(=O)C3CCCCC3)SC3CS(=O)(=O)CC32)c1 (configuration not stated)
-1.2	COCCCNC(=O)c1cn(CC(C)C)c(=O)c2c1c1ccccc1n2C
-0.2	CCc1ccccc1NC(=O)c1nnn(CC(=O)Nc2cccc(C)c2)c1N
0.3	O=C(CNC(=O)C1CCCCC1)NC1CCCCC1

3 compounds out of the list above, sorted by the value under STK33 inh, smallest number first:
STK33 inh	SMILES
-11	O=C(Nc1cccc(-c2cn3ccccc3n2)c1)c1cccc(Cl)c1
0.3	O=C(CNC(=O)C1CCCCC1)NC1CCCCC1
8.4	CCOC(=O)C(NCc1ccccc1OC)(NC(C)=O)C(F)(F)F (configuration not stated)

More entries follow:
STK33 inh	SMILES
-0.9	Cc1cc(-c2ccccc2)nc(SCC(=O)N2CCCC2)n1
-0.2	CC(=O)NCCC(=O)N1CCc2c([nH]c3ccccc23)C1c1cccc(Cl)c1 (configuration not stated)
-1.3	O=C(c1ccc(S(=O)(=O)N2CCCCCC2)cc1)N1CCCC(C(F)(F)F)C1 (configuration not stated)
-1.9	O=C(Nn1cnnc1)c1cc(-c2cccc(Br)c2)nc2ccccc12
-0.3	COc1ccc(C(C)(C)C)cc1NC(=S)NCCN1CCOCC1
0.0	COc1cc(NC(=O)C2=C(N3CCOCC3)/C(=C/c3ccc(Cl)cc3)CC2)cc(OC)c1OC
5.3	N/C(=N\OC(=O)c1ccco1)c1ccccn1
-1.5	COc1ccc(C)cc1S(=O)(=O)NCCN1CCOCC1
-0.2	CC(=O)c1cnc2nc(SCc3ccccc3C)nn2c1C
-0.7	O=C(c1ccco1)N1CCN(Cc2nnc(-c3cccc(Br)c3)o2)CC1
-1.9	Cc1cc(=O)oc2c3c(cc(OCC(=O)N[C@@H](CC(C)C)C(=O)O)c12)OC(C)(C)CC3
-0.5	CC(C)C(c1nnnn1Cc1ccc(F)cc1)N1CCN(c2ccc(O)cc2)CC1 (configuration not stated)
-1.7	O=C(Nc1ccc(N2CCOCC2)cc1)c1cc2ccccc2o1
-0.3	COc1ccccc1C(=O)C1CCCN(C(=O)CCC(=O)c2ccccc2)C1 (configuration not stated)
2.9	CN(CCCC(=O)NCc1ccccc1)S(=O)(=O)c1ccc([N+](=O)[O-])cc1
-1.2	CCOc1ccc(/C=N/NC2=NCCCCC2)cc1
-2.2	CC1CCCN(C(=O)c2ccc(NS(=O)(=O)c3cccc([N+](=O)[O-])c3)cc2)C1 (configuration not stated)
4.8	CN(C)S(=O)(=O)c1ccc(C(=O)OCCCN=C2NS(=O)(=O)c3ccccc32)cc1
-2.0	O=C(NCc1cccnc1)c1cc([N+](=O)[O-])ccc1N1CCOCC1
-1.1	Nc1nc(Nc2ccccc2F)nc(NC2CCCCC2)c1[N+](=O)[O-]
-1.1	O=C(Nc1ccc(N2CCN(C(=O)c3ccccc3)CC2)cc1)c1ccc2c(c1)OCCO2
-1.0	COc1ccc(C(=O)Nc2ccc(-c3cn4ccsc4n3)cc2)cc1S(=O)(=O)N1CCOCC1
-2.9	COCCCNC(=O)CCN1N=C(c2ccccc2)CCC1=O
0.4	Cn1c(=O)oc2cc(S(=O)(=O)NCc3cccnc3)ccc21
0.9	CSc1cc(-c2ccc(Cl)cc2)n(Cc2ccccc2)c(=O)c1C#N
-2.8	CC(=O)C1=C(O)C(=O)OC1c1ccc(Cl)cc1 (configuration not stated)
-2.2	O=C(CCc1ccccc1)Oc1ccccc1[N+](=O)[O-]
0.8	COc1ccc2oc(C(=O)NC(C)(C)C)c(C)c2c1
-2.2	CC1(C)C(=O)C2(CCCCC2)C(=O)OC1c1cccs1 (configuration not stated)
-1.1	COc1cccc(C(=O)Nc2nnc(Cc3ccc(OC)c(OC)c3)s2)c1
-1.1	O=C(O)/C=C/C(=O)N1CCN(S(=O)(=O)c2cc(C(F)(F)F)ccc2Cl)CC1
3.8	CCc1nc(-n2[nH]c(=O)c3ccccc3c2=O)c2c3c(sc2n1)CCCC3
0.2	Cc1ccc(C)c(OCC(=O)Nc2nc3ccc([N+](=O)[O-])cc3s2)c1C
-0.1	CC(=O)NC1CC2CCCC(C1)N2CC(=O)NCc1ccc(F)cc1 (configuration not stated)
-0.3	COc1ccc(Cl)cc1NC(=O)C(=O)N/N=C/c1cc(C)n(-c2ccc(C)cc2)c1C
2.5	COc1cccc(C(=O)OCCNC(=O)c2cccnc2)c1

Sorted by molecular weight (high to low): some entries from above
STK33 inh	SMILES
-1.1	O=C(O)/C=C/C(=O)N1CCN(S(=O)(=O)c2cc(C(F)(F)F)ccc2Cl)CC1
-2.2	O=C(CCc1ccccc1)Oc1ccccc1[N+](=O)[O-]
0.3	O=C(CNC(=O)C1CCCCC1)NC1CCCCC1

The results go on:
STK33 inh	SMILES
-1.4	Cc1ccc(C)c(OCc2cc(C(=O)N3CCc4sccc4C3)no2)c1
-0.1	CSc1ccc(/C=N/NC(=O)c2cccc(Cl)c2)cc1
-0.1	c1ccc(CN2CCN(C(c3ccccc3)c3nnnn3Cc3ccccc3)CC2)cc1 (configuration not stated)
0.3	O=C(N/N=C/c1ccc(C(F)(F)F)cc1)c1ccc(O)cc1
-4.5	COc1ccc(OCc2nn3c(-c4ccco4)nnc3s2)cc1
-1.8	O=C(CSc1nc2ccccc2[nH]1)N1CCN(S(=O)(=O)c2ccc(Cl)cc2)CC1
3.2	CCCN1CCC(NC(=O)C2CC=CCC2C(=O)O)CC1 (configuration not stated)
0.4	CCCCC(=O)Nc1cc(C)c(NC(=O)c2ccco2)cn1
2.1	CN(CCOc1ccccc1)CC(O)COc1ccccc1 (configuration not stated)
0.0	C/C=C\C=C/C(=O)Nc1cccc(C2=NOC3(C2)C[C@@H](C(N)=O)N(C(=O)c2ccc(Cl)cc2)C3)c1 (some centres not stated)
-4.1	O=C(Nc1cc(Sc2ccccn2)cc([N+](=O)[O-])c1)c1cccc(F)c1
-1.8	CN(C)C(=O)CSc1cccc2cccnc12
-0.2	CCOC(=O)N1CCN(CC(=O)Nc2ccc([N+](=O)[O-])cc2C(=O)Nc2ccccc2F)CC1
1.3	CC(=O)c1cc2c(C)cc(=O)oc2cc1O
-1.3	CCOC(=O)c1c(NC(N)=O)nc2n1CCC2
0.1	C=CCn1c(SC(CCO)C(=O)NCc2ccco2)nc2sc3c(c2c1=O)CCC3 (configuration not stated)
-1.2	Cn1nc(C(C)(C)C)c(NC(=O)c2ccc(F)cc2)c1C(C)(C)C
-2.8	COc1ccc(C(=O)N2CCN(c3ccccc3)CC2)cc1S(=O)(=O)N1CCOCC1
-1.5	CCC(Oc1ccc(Br)cc1Cl)C(=O)Nc1nnc(C2CC2)s1 (configuration not stated)
0.1	COc1ccc(OC)c(/C=N/NC(=O)c2ccncc2)c1
0.1	CC1(c2nnc(-c3ccc(Cl)cc3)o2)CC(c2cccnc2)=NO1 (configuration not stated)
0.3	Clc1ccc(N/N=C/c2cccs2)nn1
-2.3	COC(=O)c1cccc(S(=O)(=O)N2CCC(c3nc4ccccc4o3)CC2)c1
-0.2	Cc1csc2c(=O)sc(NC(=O)c3ccc(F)cc3)nc12

Part of the list above, with each value named:
CCC(Oc1ccc(Br)cc1Cl)C(=O)Nc1nnc(C2CC2)s1 (configuration not stated)
  STK33 inh: -1.5
COc1ccc(OC)c(/C=N/NC(=O)c2ccncc2)c1
  STK33 inh: 0.1
CC1(c2nnc(-c3ccc(Cl)cc3)o2)CC(c2cccnc2)=NO1 (configuration not stated)
  STK33 inh: 0.1
Clc1ccc(N/N=C/c2cccs2)nn1
  STK33 inh: 0.3

Later entries
STK33 inh	SMILES
0.6	CC(CNC(=O)COc1ccccc1)OC(=O)Nc1cccc(Cl)c1 (configuration not stated)
-0.6	O=C(O)/C=C\c1cn(-c2ccccc2)nc1-c1cc2ccccc2o1
-0.9	COc1ccc(CNC(=O)N2CCc3ccccc3C2)cc1Cl
-1.4	CCNC(=O)COC(=O)c1cc(-c2ccc(OC)cc2)nc2ccccc12
-0.3	Cc1ccc(NC(=O)C2(c3ccccc3)CCOCC2)cc1
-1.5	COc1ccc(C(=O)NNC(=O)CN2CCC(n3nnc4cc(C)ccc43)CC2)cc1
0.8	O=C(C1CCN(S(=O)(=O)c2ccc(-n3cnnn3)cc2)CC1)N1CCCCC1
-0.6	O=S(=O)(Nc1ccc(O)c(Sc2nc3ccccc3s2)c1)c1cccc2ccccc12
0.0	CCS(=O)(=O)N1CCN(c2ccccn2)CC1
-1.1	CCCc1cc(=O)[nH]c(SCC(=O)Nc2nonc2C)n1
-0.7	Clc1cccc(OCCn2ccnc2)c1
-2.0	CCCN(CCC)C(=O)CSc1nc2c(sc(=S)n2-c2ccc(OCC)cc2)c(=O)[nH]1
-1.2	COc1ccccc1NC(=O)N(Cc1ccco1)Cc1cc2cccc(C)c2[nH]c1=O
3.4	CCCCC(CCC(=O)Nc1cc([N+](=O)[O-])ccc1O)C(=O)O (configuration not stated)
1.0	O=C(CSc1nnc(CNc2ccc(Cl)cc2)o1)Nc1nc2c(s1)CCCC2
1.8	CCOc1cc(C2c3c(oc4cc(C)c(Cl)cc4c3=O)C(=O)N2Cc2ccco2)ccc1O (configuration not stated)
-0.8	Cc1ccc(NC(=O)CN(C)C(=O)c2ccc(S(=O)(=O)N(C)c3ccccc3)cc2)cc1
-2.6	COc1ccc(/C=C/C(=O)Nc2ccc(OC)cc2[N+](=O)[O-])cc1
0.3	CC(=O)c1ccc(OC(=O)c2cccs2)cc1
-1.3	Cc1cc(C)c2c(n1)nn1c(N3CCN(c4ccccc4)CC3)cc(C)nc21
-2.0	O=C(OCC(=O)N1CCN(C(=O)c2ccco2)CC1)c1ccccc1Cc1ccccc1
-1.6	COc1ccc(N2CCN(C(=O)CSc3ncnc4c3cnn4-c3ccccc3C)CC2)cc1
-0.5	CC1(c2ccc3noc(-c4ccc(Cl)cc4)c3c2)OCCO1
-2.8	CCOC(=O)C1(Cc2ccccc2)CCN(Cc2cccc3c2OCO3)CC1
-0.4	O=C(c1ccc(Cl)cc1)c1c[nH]c(C(=O)C(Cl)(Cl)Cl)c1
0.0	Cc1ccccc1NC(=O)c1sc2nc(N3CCOCC3)c3c(c2c1N)CCCC3
1.8	Cc1ccc(-c2ccc(/C=N/c3ncn[nH]3)o2)cc1Cl
-0.5	CC(C)CC(c1nnnn1CCc1ccccc1)N1CCN(C(=O)c2ccco2)CC1 (configuration not stated)
-0.9	COc1cc(/C=C/C(=O)N2CCCc3ccccc32)cc(OC)c1OC
-1.0	COc1ccc(NC(=O)NC2CCCc3ccccc32)c(OC)c1 (configuration not stated)
0.6	O=C(NCc1ccccc1)c1cncc(Br)c1
-2.4	CCSc1nnc2c(n1)OC(C)(C)Nc1ccccc1-2
-0.5	Cc1nn2c(-c3cccc(NC(=O)CSc4nc5ccccc5o4)c3)nnc2c2ccccc12
1.0	O=S(=O)(NN=C1CCCCCC1)c1ccccc1
-0.7	O=Cc1sc(N2CCOCC2)nc1-c1ccccc1
-0.7	CCc1nnc2sc(-c3cc(-c4ccccc4)nc4ccccc34)nn12
-1.1	O=C(NNS(=O)(=O)c1ccc2ccccc2c1)NC1CCCCC1
-1.0	CCN(CC)CC(=O)N1c2ccccc2Sc2ccccc21
0.1	Cc1c(C(=O)N2CCCCC2)sc(NC(=O)C2CC2)c1C#N
1.4	OCC1CCCN(C(=S)Nc2ccc(Nc3ccccc3)cc2)C1 (configuration not stated)
-0.2	Cc1ccc(C)c(NC(=O)Cn2nnc(C(=O)Nc3c(C)cccc3C)c2N)c1
0.5	O=C(NC(Cc1ccccc1)C(=O)O)/C(=C/c1ccc([N+](=O)[O-])cc1)NC(=O)c1ccco1 (configuration not stated)
-0.8	COc1ccc2c(C=Nc3c(C)n(C)n(-c4ccccc4)c3=O)c(O)n(Cc3ccco3)c(=O)c2c1
-1.7	O=C(CNC(=O)c1ccc(OC(F)F)cc1)NCC1CCCO1 (configuration not stated)
-1.1	Clc1ccc(COn2c(-c3ccccc3)nc3ccccc32)cc1
0.1	CCCc1nn(C)c(C(=O)Nc2ccc(C(C)(C)C)cc2)c1Cl
1.0	O=C(NN1CCOCC1)c1sc2cccc(F)c2c1Cl
-2.0	Cc1ccc(-n2c(N)c(C(=O)N3CCOCC3)sc2=S)c(C)c1
0.4	Cc1cc(C)c(C)c(/C=C(/C#N)C(N)=S)c1C
-0.8	COc1ccc(N)c2c1OCCC2=O
-0.8	CC(C)n1cc(CN2CCCC(C(=O)Nc3ccccc3Oc3cccnc3)C2)cn1 (configuration not stated)
1.0	CCN(CC)S(=O)(=O)c1ccc(C(=O)NCc2ccc3c(c2)cc(C)n3C)cc1
0.6	Nc1nonc1OCCN1CCN(c2ccc([N+](=O)[O-])c3cccnc23)CC1
0.1	O=C(Cc1ccccc1)Nc1ccc(NC(=S)NC(=O)c2ccccc2)cc1
0.3	O=C(CCN1C(=O)/C(=C\c2cccs2)SC1=S)Nc1ccc(C(=O)O)cc1
-1.1	CC(Nc1cc(N2CCOCC2)ccc1[N+](=O)[O-])c1ccccc1 (configuration not stated)
